gsp ag: gsp mutant agonism. gsp mutant cells, cAMP HTRF, 30 min; control for the full effect not named in the record. Potency, µM (titrated, usually from 76.9 µM), inactives show at the top dose activation (cAMP increase), most hits filed as activators. 0.13% of 340,000 active; active = well fitted activation curve with a large enough effect; inconclusive = small, poorly fitted or top-dose-only effect, or another doubt; inactive = no such curve, though single readings can be large or run the other way; cell line not stated here;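 further: phosphodiesterase inhibitor Ro 20-1724 added with compounds to block cAMP breakdown; potency means the concentration at half of the fitted maximal effect; nearly all actives have a fitted effect of over 60% in size; about a fifth of the inactives were tested at one dose only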
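Cells in DMEM/10% FBS with G418 were pretreated with compounds in DMSO plus […] (300 uM stock) for 30 min at 37C. cAMP was measured by HTRF (cAMP-d2 plus anti-cAMP antibody-K) after 30 min at room temperature.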
CtBP-E1A blk: CtBP/E1A binding inhibition | AlphaScreen GST-E1A/His-CtBP binding, 1536-well; hits give low values; control for the full effect not named in the record | activity change, % (concentration not given with the values) | 0.49% of 340,000 active | AID 651724; in the data active means activity change below about -65%; inconclusive means about -30% to -65%; inactive means above about -30%; further: on the % scale 0 is the no-effect control and ±100 the full control effect
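In 5 uL wells, 23 nL compound meets equimolar GST-E1A and His-CtBP (5X stock 125 nM each) for 2 h, 37 °C. Beads (5X, 50 ug/mL) then 1 h, 37 °C, dark.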
gsp antagonist: antagonizes gsp, the McCune-Albright syndrome mutation; Potency, µM (titrated, usually from 76.9 µM), inactives show top-dose activity change, negative = inhibition, most hits filed as inhibitors; AID 624288; 0.4% of 340,000 active; gsp-mutant cells, cAMP HTRF, 30 min; control for the full effect not named in the record; active = falling curve of any shape with a large fitted effect; inconclusive = falling curve, mostly with a smaller effect; inactive = flat or rising curve; cell line not stated here;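 further: intracellular cAMP measured with PDE inhibitor Ro 20-1724 present during compound exposure; potency means the concentration at half of the fitted maximal effect; on the % scale 0 is the no-effect control and ±100 the full control effect; nearly all actives have a fitted effect of over 65% in size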
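HTRF cAMP measurement after 30 min RT detection following 30 min, 37C compound treatment alongside […] (added as 300 uM solution) in G418-selected cells seeded at 2000/well and grown 16–24 h.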
ClpP mod: qHTS Assay for Activators of ClpP; 1.9% of 340,000 active; purified B. subtilis ClpP, FRET peptide cleavage, 20 min; Potency, µM (top dose mostly 57.5 µM), inactives show top-dose activity change, negative = active; ATP-dependent Clp protease proteolytic subunit (Bacillus subtilis (strain 168)), P80244; active = well fitted falling curve with a large enough effect; inconclusive = small, poorly fitted or top-dose-only effect; inactive = no such curve, though single readings can be large or run the other way; further: potency means the concentration at half of the fitted maximal effect; the source files actives as falling curves though it sought activators and does not explain the sign; nearly all actives have a fitted effect of over 65% in size; many hits overshoot -100%
Target sequence (P80244 whole entry, looked up): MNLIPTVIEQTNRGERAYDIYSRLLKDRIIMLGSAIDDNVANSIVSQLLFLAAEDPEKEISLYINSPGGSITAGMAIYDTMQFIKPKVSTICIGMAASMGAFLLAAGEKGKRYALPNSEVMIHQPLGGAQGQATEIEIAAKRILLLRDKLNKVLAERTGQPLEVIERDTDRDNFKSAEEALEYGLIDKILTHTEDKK
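FRET quenching reversal measured ClpP activation: 10 microg/mL B. subtilis ClpP at pH 8 with the FRET-FV decapeptide, read at 430 nm after 320 nm excitation. The 20-min minus 0-min signal was scaled between DMSO/no-enzyme wells and ADEP (5.8 microM final).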
TRPV1 PAM: human TRPV1 potentiation | Q8NER1 | TRPV1-expressing cells, Fluo-8 calcium influx, capsaicin EC20 potentiation; host cell line not named in the record; control for the full effect not named in the record | potentiation, % at 8.33 µM | 0.02% of 320,000 active; active means potentiation above 80%; inconclusive means 30% to 80%; inactive means below 30%; further: 0% is about no effect
Target sequence (Q8NER1 whole entry, looked up): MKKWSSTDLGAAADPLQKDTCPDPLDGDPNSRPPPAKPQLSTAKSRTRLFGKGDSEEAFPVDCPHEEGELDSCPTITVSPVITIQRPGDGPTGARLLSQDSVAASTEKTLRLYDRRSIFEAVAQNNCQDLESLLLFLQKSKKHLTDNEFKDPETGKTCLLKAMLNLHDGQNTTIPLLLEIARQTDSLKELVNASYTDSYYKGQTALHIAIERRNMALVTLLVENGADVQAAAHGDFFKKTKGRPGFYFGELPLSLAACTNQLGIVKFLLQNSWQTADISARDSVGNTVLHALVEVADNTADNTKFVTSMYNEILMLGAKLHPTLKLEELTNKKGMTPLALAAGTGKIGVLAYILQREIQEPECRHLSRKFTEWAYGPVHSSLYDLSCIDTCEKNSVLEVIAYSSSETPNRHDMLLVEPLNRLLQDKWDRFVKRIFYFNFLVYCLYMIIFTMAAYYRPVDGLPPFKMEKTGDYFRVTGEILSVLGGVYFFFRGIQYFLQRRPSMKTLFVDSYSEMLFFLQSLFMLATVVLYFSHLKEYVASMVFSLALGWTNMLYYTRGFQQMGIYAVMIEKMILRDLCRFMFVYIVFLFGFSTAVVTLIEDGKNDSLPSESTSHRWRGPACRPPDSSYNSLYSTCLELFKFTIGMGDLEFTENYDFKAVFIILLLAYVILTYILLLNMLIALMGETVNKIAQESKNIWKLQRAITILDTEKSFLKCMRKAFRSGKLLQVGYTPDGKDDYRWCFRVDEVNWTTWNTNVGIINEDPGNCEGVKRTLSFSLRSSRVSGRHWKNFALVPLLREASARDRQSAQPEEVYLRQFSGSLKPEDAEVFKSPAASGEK
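Cells expressing TRPV1 were dye-loaded with Fluo-8 and read kinetically: 10 s baseline, 3 min after compound (agonist portion), then 2 min after EC20 capsaicin (allosteric enhancer portion). Calcium-bound dye fluorescence at 480/520 nm.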
Menin-MLL FL inh: inhibitors of human menin-MLL interaction, wild-type MLL peptide. AID 1766. 290,000 tested, under 10 active. Fluorescence polarization, fluorescein-MLL peptide displacement from menin. FP activity change, % at 61.4 µM; inconclusive = falling polarisation curve, or a change in total fluorescence; inactive = total fluorescence flat and polarisation flat or rising; no compound was filed as active; the % refers to the polarisation; negative = inhibition;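 further: % of control where 0% means no effect; inhibitors lower the polarisation; unlabelled MLL peptide was the positive control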
Sfp PPTase inh: blocks B. subtilis Sfp PPTase activity; Q9F4F7; Biochemical Sfp PPTase activity, qHTS; Potency, µM, for inactives: max response, negative = inhibition, hits mostly inhibitors; 3.5% of 310,000 active; active means well fitted inhibition curve with a large enough effect; inconclusive means small, poorly fitted or top-dose-only effect, or another doubt; inactive means no such curve, though single readings can be large or run the other way;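 further: the enzyme is Sfp with the accession as filed and its product quenches rhodamine fluorescence; potency means the concentration at half of the fitted maximal effect; 0% = enzyme reaction without inhibitor and -100% = no enzyme wells; top concentration of the series not given in the record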
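Fluorescence-quenching assay with 15 nM Sfp, 5 uM rhodamine-CoA and 12.5 uM BHQ-2-labelled ybbR peptide in pH 7.6 Hepes/MgCl2 buffer. Enzyme was pre-incubated with compound for 15 min at room temperature. Rate was taken from the 30-min fluorescence change (525/598 nm).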
* hit, by the source's call; ? = inconclusive; nt = no result given; & = joins results of further samples; [ ] = remark or other dose.

#1 CCOC(=O)c1ccc(NS(=O)(=O)c2c(C)nc3sccn3c2=O)cc1
#2 Cc1ccc2occ(CN3CCN(c4ccccc4)CC3)c(=O)c2c1
#3 CC(C)c1nnc(NC(=O)CCN2C(=O)c3ccccc3C2=O)s1
#4 CCc1nnc2sc(-c3ccc(NC(=O)c4ccco4)cc3)nn12
#5 CC(C)OC(=O)c1c(N)sc2c1CCCC2
#6 COc1ccccc1N1CCN(c2cc(N3CCCC3)nc(C)n2)CC1
#7 CCCC1(C)C(C#N)C(=O)NC(=O)C1C#N (stereo not given)
#8 COc1cccc(C(=O)NNC(=O)C(=O)Nc2cccc3ccccc23)c1

Compound | 1 | 2 | 3 | 4 | 5 | 6 | 7 | 8
TRPV1 PAM | 9 | -3 | 9 | -3 | nt | -14 | nt | -5
CtBP-E1A blk | 1 | -6 | 7 | -23 | -6 | -16 | 3 | -2
Sfp PPTase inh | 11% | -10% | 14% | 33%[activator] | nt | -2% | nt | 25%
gsp ag | 1% | 9% | ? | ? | 12% | -9% | 5% | -11%[15.4 µM]
ClpP mod | 0.5% | -4.9% | 0.9% | -19% | -1.2% | -1.9% | nt | nt
gsp antagonist | -7% | 3% | -4% | -10% | -24% | 5% | 2% | -12%
Menin-MLL FL inh | 3.2 | 2.0 | 6.2 | 0.8 | nt | -0.1 | nt | -8.7

Next section (four carried over from the part before).
#5 CC(C)OC(=O)c1c(N)sc2c1CCCC2
#6 COc1ccccc1N1CCN(c2cc(N3CCCC3)nc(C)n2)CC1
#7 CCCC1(C)C(C#N)C(=O)NC(=O)C1C#N (stereo not given)
#8 COc1cccc(C(=O)NNC(=O)C(=O)Nc2cccc3ccccc23)c1
#9 CNc1cc(N2CCCCCC2)ccc1[N+](=O)[O-]
#10 Cc1c(NC(=O)c2ncn[nH]2)cccc1-c1nc2ccccc2s1
#11 COC(=O)C1CCN(C(=O)c2ccc3nc(-c4cccc(OC)c4)oc3c2)CC1
#12 Cn1nnnc1SCC(=O)NCc1ccco1
#13 CCOC(=O)Cn1c(=O)oc2cc(S(=O)(=O)N3CCn4c3nc3ccccc34)ccc21
#14 CCC(C)NS(=O)(=O)c1ccc(OCC(=O)N2CCCCC2)cc1 (stereo not given)
#15 CN1CCC(=C2c3ccccc3Sc3ccccc32)CC1
#16 O=S(=O)(Cc1ccccc1)NCC1CCCN(Cc2ccc3nonc3c2)C1 (stereo not given)

Compound | 5 | 6 | 7 | 8 | 9 | 10 | 11 | 12 | 13 | 14 | 15 | 16
TRPV1 PAM | nt | -14 | nt | -5 | 7 | -14 | -4 | -3 | -11 | 12 | nt | -5
CtBP-E1A blk | -6 | -16 | 3 | -2 | 0 | ? | 7 | 5 | -9 | 46 | -16 | 3
Sfp PPTase inh | nt | -2% | nt | 25% | -16% | -13% | 5% | 17% | 15% | 0% | -14%&29% | 10%
gsp ag | 12% | -9% | 5% | -11%[15.4 µM] | ? | ? | -53%[inhibitor] | -19% | -1% | -19% | nt | -5%
ClpP mod | -1.2% | -1.9% | nt | nt | -0.5% | -4.5% | -16% | 1.6% | -1.4% | 0.6% | 0.6% | -0.5%
gsp antagonist | -24% | 5% | 2% | -12% | ? | 3% | 2% | 8% | -6% | 6% | -2% | 13%
Menin-MLL FL inh | nt | -0.1 | nt | -8.7 | 5.2 | 5.7 | nt | 3.3 | 0.7 | 2.3 | -1.8 | -2.3

#17 O=C(Cc1ccccc1)NCc1ccccn1
#18 S=C(Nc1ccc(Br)cc1Cl)N1CCN(c2ccccn2)CC1
#19 Cc1cc2c(c(=O)n1Cc1ccc3c(c1)OCO3)C(c1cccnc1)C(C#N)=C(N)O2 (stereo not given)
#20 O=C(CSc1nc2ccccc2[nH]1)Nc1c(F)cccc1F
#21 CC(NC(=O)COC(=O)CCC(=O)c1ccc(Cl)cc1)c1ccccc1 (stereo not given)
#22 Cc1cccn2c(=O)c3cc(C(=O)NCC4CCCO4)c(=N)n(CCc4ccccc4)c3nc12 (stereo not given)
#23 Cc1ccc(NC(=O)CCC(=O)NNC(=O)C(C)(C)C)c(C)c1
#24 CCCCOc1ccc(OCCCC)c2c1NC1(N2)C(=O)N(C(C)=O)c2ccccc21

Compound | 17 | 18 | 19 | 20 | 21 | 22 | 23 | 24
TRPV1 PAM | -4 | -1 | 14 | -11 | nt | 7 | -3 | 5
CtBP-E1A blk | -16 | 0 | 2 | -1 | 6 | -14 | nt | 7
Sfp PPTase inh | 16% | 10% | 12% | 2% | nt | 9% | 10% | 7%
gsp ag | ? | 26%[15.4 µM] | -16% | 20% | -5% | ? | 0% | 26%
ClpP mod | -1.3% | -4.4% | -0.2% | -0.4% | nt | nt | -1.5% | 0.5%
gsp antagonist | 12% | -7% | -21% | 1% | -4% | 7% | 9% | -4%
Menin-MLL FL inh | 6.8 | -0.1 | 0.7 | 5.7 | nt | nt | -1.2 | 3.5

Part of the list above in order of number of heavy atoms, lowest first.
#15 CN1CCC(=C2c3ccccc3Sc3ccccc32)CC1
#20 O=C(CSc1nc2ccccc2[nH]1)Nc1c(F)cccc1F
#6 COc1ccccc1N1CCN(c2cc(N3CCCC3)nc(C)n2)CC1

Compound | 15 | 20 | 6
TRPV1 PAM | nt | -11 | -14
CtBP-E1A blk | -16 | -1 | -16
Sfp PPTase inh | -14%&29% | 2% | -2%
gsp ag | nt | 20% | -9%
ClpP mod | 0.6% | -0.4% | -1.9%
gsp antagonist | -2% | 1% | 5%
Menin-MLL FL inh | -1.8 | 5.7 | -0.1

The list continues.
#25 C=CCNC(=O)c1ccc(Sc2ccc(C)cc2)c([N+](=O)[O-])c1
#26 Brc1ccc(Nc2nc3ccccc3n3nnnc23)cc1
#27 CCOC(=O)C1(S(=O)(=O)c2ccc(Cl)cc2)CCN(Cc2ccc(C)cc2)CC1
#28 CC(Cn1cncn1)C(=O)N1CCN(S(=O)(=O)c2ccccc2)CC1 (stereo not given)
#29 CC(C)(C)c1ccc(OCC(=O)OCCNC(=O)c2cccnc2)cc1
#30 COc1ccccc1NC(=O)Nc1nnc(CC(=O)Nc2ccccc2C)s1
#31 COC(=O)c1cc(-c2ccc(Br)cc2)on1
#32 Cc1ccc2cc(NC(=O)c3cccc(F)c3)ccc2n1

Compound | 25 | 26 | 27 | 28 | 29 | 30 | 31 | 32
TRPV1 PAM | -10 | -5 | -4 | 1 | -19 | ? | nt | -4
CtBP-E1A blk | -5 | nt | -3 | -4 | 3 | 9 | 15 | nt
Sfp PPTase inh | 11% | -7% | -1% | 11% | 7% | -4% | 15% | 0%
gsp ag | -41%[inhibitor] | nt | -24% | -7%[15.4 µM] | -35%[inhibitor] | -3% | -58%[inhibitor] | 3%
ClpP mod | -3.1% | nt | -0.4% | nt | -1.2% | nt | -9.2% | 0.1%
gsp antagonist | 0% | nt | -22% | 22% | -13% | -4% | -2% | -9%
Menin-MLL FL inh | 4.2 | ? | 2.0 | 8.3 | 6.4 | 9.4 | 0.1 | 1.0

#33 O=C(CCC(=O)c1cccs1)OCC(=O)N1CCN(C(=O)c2ccco2)CC1
#34 CCN(CC)C(=O)CSc1nnc(SCc2ccc(Cl)cc2)s1
#35 CCC(CC)C(=O)Nc1cccc(-c2ccc3nncn3n2)c1
#36 COC(=O)C1CCN(C(=O)Cc2c(OC)ccc3cc(Br)ccc23)CC1
#37 CCOc1cc(/C=C2\NC(=O)NC2=O)ccc1OC(C)C(=O)O (stereo not given)
#38 CC(C)CNS(=O)(=O)c1ccc(S(=O)(=O)N2CCN(CCC#N)CC2)cc1
#39 N#CC1=C(N)Oc2n[nH]c(-c3cccnc3)c2C1c1ccc([N+](=O)[O-])o1 (stereo not given)
#40 O=C1OCCC1Sc1nnc(-c2ccco2)o1 (stereo not given)

Compound | 33 | 34 | 35 | 36 | 37 | 38 | 39 | 40
TRPV1 PAM | 17 | -19 | -4 | -16 | -3 | 11 | 2 | -1
CtBP-E1A blk | 5 | 2 | nt | nt | 12 | -9 | -8 | -4
Sfp PPTase inh | 4% | 16% | 8% | 56µM* | 10% | 11% | 5% | 10%
gsp ag | -5% | 19% | -30% | ? | -11% | -12% | 0%[15.4 µM] | 6%
ClpP mod | -1.2% | -1.8% | 0.7% | -0.1% | nt | -0.9% | -0.1% | -4.1%
gsp antagonist | 5% | ? | 14% | -1% | -2% | 10% | 2% | -8%
Menin-MLL FL inh | 5.6 | 1.6 | -2.2 | 4.5 | 0.1 | 5.0 | 15 | 1.1

#41 Cc1nc2ccc([N+](=O)[O-])cc2s1
#42 CC(=O)c1ccc(N(CC(=O)NC2CCS(=O)(=O)C2)S(=O)(=O)c2ccc(Cl)cc2)cc1 (stereo not given)
#43 CN(C)CCNC(=O)C1CCCNC1=O (stereo not given)
#44 Cc1cccc(C(=O)NC(=S)N2CCc3ccccc3C2)c1
#45 O=C1/C(=C/c2cccc([N+](=O)[O-])c2)CCc2ccccc21
#46 O=C(CSc1nnc(-c2ccc(C(F)(F)F)cn2)o1)Nc1cccc(Cl)c1
#47 CC(C)c1nc(SCC(=O)N2CCCCCC2)c2c(=O)n(C)c(=O)n(C)c2n1
#48 CC(=O)c1ccc(Cl)c(Cl)c1Cl
#49 Cc1ccc(C(c2sc3nc(C)nn3c2O)N2CCN(CCO)CC2)cc1 (stereo not given)
#50 O=C(CCC(=O)c1cccs1)c1cccs1

Compound | 41 | 42 | 43 | 44 | 45 | 46 | 47 | 48 | 49 | 50
TRPV1 PAM | 0 | 5 | 7 | -16 | 20 | 19 | -22 | 1 | 1 | -7
CtBP-E1A blk | -23 | nt | 3 | -4 | -16 | ? | 3 | 7 | 1 | 5
Sfp PPTase inh | 14% | nt | 5% | 4% | 0% | 1% | -26% | nt | 6% | 21%
gsp ag | -9%[15.4 µM] | -50%[inhibitor] | ? | -12%[15.4 µM] | -20% | 20%[15.4 µM] | 52% | nt | 28% | -26%
ClpP mod | nt | -0.9% | 0.8% | nt | -0.5% | nt | -1.0% | 1.4% | 1.4% | 1.0%
gsp antagonist | -13% | -7% | 8% | 0% | -17% | -5% | ? | 10% | 1% | 4%
Menin-MLL FL inh | -3.7 | nt | 3.9 | -7.7 | 1.0 | 0.1 | nt | nt | 4.1 | 3.7

Compound activity from PubChem BioAssay.
